# From PubChem BioAssay
# SARS PLpro yeast: SARS-CoV PLP inhibition in yeast | actives 0.19% (n = 330,000) | S. cerevisiae expressing SARS-CoV PLpro, growth rescue; control for the full effect not named in the record | Potency, µM (series often up to 32.9 µM), without a hit: at the highest dose activity, positive = growth rescue; note: 0% is about no effect; nearly all actives have a fitted effect of over 55% in size; growth read by luminescence after 48 h
# Cruzain inh noDet: blocks cruzain activity in detergent-free assay; P25779; purified cruzain, Z-FR-AMC fluorescence, no detergent; Potency, µM, for the others: max response, negative = inhibition, hits mostly inhibitors; actives 2.3% (n = 200,000); AID 1476; active = well fitted curve in the direction sought with a large enough effect; inconclusive = small, poorly fitted or top-dose-only effect, or another doubt; inactive = no such curve, though single readings can be large; an effect the other way counts as inactive or inconclusive;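 note: plate controls were enzyme without inhibitor for no effect and buffer without enzyme for full effect; nearly all actives have a fitted effect of over 40% in size; top concentration of the series not given in the record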
# Target sequence (P25779 123-467 limits assumed): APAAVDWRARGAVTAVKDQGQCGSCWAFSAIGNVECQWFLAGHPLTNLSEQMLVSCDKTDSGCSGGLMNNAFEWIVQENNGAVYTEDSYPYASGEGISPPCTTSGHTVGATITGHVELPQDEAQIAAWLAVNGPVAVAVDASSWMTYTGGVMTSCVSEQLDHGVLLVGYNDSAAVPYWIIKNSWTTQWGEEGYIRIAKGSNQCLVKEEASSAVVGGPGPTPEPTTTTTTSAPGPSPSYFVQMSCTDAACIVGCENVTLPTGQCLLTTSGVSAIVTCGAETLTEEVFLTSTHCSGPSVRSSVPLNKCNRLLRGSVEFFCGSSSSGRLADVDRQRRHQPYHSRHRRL
#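 Detergent-free condition (0.00005% Triton X-100) in acetate buffer pH 5.5 with DTT. 1.5 nM enzyme and compound were pre-mixed 15 min, then 2 uM Z-FR-AMC substrate added; reaction progress from fluorescence change between first and third reads (60 s).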
# LASV entry inh: inhibitors of Lassa virus binding or cell entry; Lassa virus pseudotype entry inhibition, cell reporter; control for the full effect not named in the record; Potency, µM (series often up to 37.9 µM), without a hit: at the top dose activity change, negative = inhibition, most hits filed as inhibitors; actives 1.2% (n = 300,000); active means well fitted inhibition curve with a large enough effect; inconclusive means small, poorly fitted or top-dose-only effect, or effect the other way; inactive means flat fitted curve, though single readings scatter; tested in HEK293 cells; note: % is set by controls: 0 for no effect and ±100 for the full control effect; nearly all actives have a fitted effect of over 50% in size; luciferase read-out
# 2A StopGo: FMDV 2A StopGo reporter, luciferase signal; AID 1159524; Potency, µM (titrated, usually from 57.9 µM), for inactives: top-dose signal change, negative = less light; human cells with a luciferase reporter of 2A StopGo recoding; control for the full effect not named in the record; actives 1.2% (n = 410,000); active = well fitted falling curve with a large enough effect; inconclusive = small, poorly fitted or top-dose-only effect; inactive = no such curve, though single readings can be large or run the other way; tested in HEK293T cells; note: % is set by controls: 0 for no effect and ±100 for the full control effect; nearly all actives have a fitted effect of over 45% in size; luciferase light after 4 h
# RE007 growth inh: less growth of the S. pombe RE007 Vpr strain; S. pombe RE007 Vpr strain, BacTiter-Glo ATP luminescence, 24 h; control for the full effect not named in the record; Potency, µM (top dose mostly 92.2 µM), for inactives: top-dose activity change, negative = less growth; actives 0.21% (n = 360,000); AID 651644; active = well fitted falling curve with a large enough effect; inconclusive = small, poorly fitted or top-dose-only effect; inactive = no such curve, though single readings can be large or run the other way;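 note: % is set by controls: 0 for no effect and ±100 for the full control effect; nearly all actives have a fitted effect of over 50% in size; the assay follows cell death caused by Vpr and the record does not say whether a fall means rescue or toxicity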
#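 Fission yeast RE007 carrying one integrated HIV-1 vpr copy, seeded at OD 0.01 in PMG+AL medium with 23 nL pinned compound. Grown 24 h at 30 degrees; viability read by BacTiter-Glo luminescence after 5 min.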
# NS1 function inh: influenza NS1 inhibition | actives 0.4% (n = 270,000) | S. cerevisiae slowed by influenza A NS1, growth recovery by OD600 | Potency, µM (titrated, usually from 46.1 µM), without a hit: at the highest dose activity, positive = more growth | AID 2326; note: actives are rising curves; nearly all actives have a fitted effect of over 50% in size
#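 Compounds were scored for reversing the slow growth caused by influenza A NS1 in S. cerevisiae, measured by optical density at 600 nm. Assay medium contained 2% galactose at pH 6.0; NS1-free yeast of the same strain were the positive control.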
# MARV entry inh: Marburg virus entry inhibition; Marburg virus pseudotyped entry inhibition, cell reporter; control for the full effect not named in the record; about a third of the inactives were read at about 46 µM; Potency, µM (top dose mostly 37.8 µM), for inactives: top-dose activity change, negative = inhibition, usual class: inhibitors; actives 1.8% (n = 300,000); active = well fitted inhibition curve with a large enough effect; inconclusive = small, poorly fitted or top-dose-only effect, or effect the other way; inactive = flat fitted curve, though single readings scatter; tested in HEK293 cells; about a fifth of its hits are not listed in these tables; note: % is set by controls: 0 for no effect and ±100 for the full control effect; luciferase read-out
# Cruzain inh Det: cruzain (T. cruzi) inhibition with detergent; purified cruzain, Z-FR-AMC fluorescence, 0.01% Triton; actives 0.43% (n = 200,000); P25779; Potency, µM, without a hit: max response, negative = inhibition, usual class: inhibitors; active = well fitted curve in the direction sought with a large enough effect; inconclusive = small, poorly fitted or top-dose-only effect, or another doubt; inactive = no such curve, though single readings can be large; an effect the other way counts as inactive or inconclusive;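 note: plate controls were neutral wells for no effect and buffer without enzyme for full effect; nearly all actives have a fitted effect of over 40% in size; top concentration of the series not given in the record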
#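 Compounds were screened in titration against cruzain (1.5 nM) with 0.01% Triton X-100 to counter colloidal aggregation. Activity was the AMC fluorescence increase over 60 s after adding 2 uM Z-FR-AMC at pH 5.5.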
# Active calls of the source: *; ? = inconclusive; / = no result given; & = joins results of further samples; [ ] = dose if it differs, or a comment. Unless noted, calls come from the whole dose curve; as a rule, active means well fitted rising curve with a large enough effect; inconclusive means small, poorly fitted or top-dose-only effect; inactive means no such curve, though single readings can be large or run the other way. Potency is the fitted concentration of half-maximal effect.
no.	Structure	RE007 growth inh	Cruzain inh noDet	2A StopGo	MARV entry inh	LASV entry inh	Cruzain inh Det	NS1 function inh	SARS PLpro yeast
1	Cc1ccccc1NC(=O)c1ccc(F)c(S(=O)(=O)N2CCCCC2)c1	1%	/	-2%	2%[46.1 µM]	-26%[46.1 µM]	/	/	-3%
2	CC(C)NC(=O)C1CCN(C2CCN(C(=O)c3ccc4cccc(F)c4n3)CC2)CC1	-13%	/	-17%	/	/	/	0%	1%
3	C=CCOc1ccc(CNc2nn[nH]n2)cc1	6%	2%	-12%	-1%	?	0.9%	9%	1%
4	Cc1cccnc1NC(=O)c1ccc(S(=O)(=O)N2CC(C)OC(C)C2)cc1 (stereo unspecified)	15%	/	-20%	6%[46.1 µM]	-25%[46.1 µM]	/	/	2%
5	Cc1ccccc1N1CCN(C2CCCN(C(=O)CCN3CCCCC3=O)C2)CC1 (stereo unspecified)	6%	/	-12%	/	/	/	2%	1%
6	Cc1ccc(NC(=O)C2CCN(C(=O)c3cnn(-c4ccccc4)c3-n3cccc3)CC2)cc1Cl	/	-3%	?	?	?	-10%	/	/
7	CCCS(=O)(=O)c1nc(S(=O)(=O)c2ccc(C)cc2)c(N2CCC(O)CC2)s1	-7%	/	17%	/	/	/	-2%	0%
8	Cn1c(=O)oc2cc(S(=O)(=O)NCCN3CCc4ccccc4C3)ccc21	10%	12%	5.6µM*	/	/	-1.5%	6%	?
9	CS(=O)(=O)Nc1ccc(C(=O)NC2CCCCC2)cc1	-17%	/	18%	?	11%	/	/	4%
10	COc1ccc(C(=O)COC(=O)c2cc(S(=O)(=O)NCc3ccccc3)ccc2O)cc1	-13%	/	7%	-1%	-7%	/	/	2%
11	CC(C)(C)N(Cc1ccccc1)C(=O)CSc1nc2ccccc2c(=O)[nH]1	15%	-2%	?	18%	9%	-6.8%	7%	0%
12	CCOc1ccc(C(C(=O)NCC2CCCO2)N(C(=O)c2snc(C(N)=O)c2N)c2cccc(F)c2)cc1 (stereo unspecified)	-6%	/	-16%	?	?	/	18%	-3%
13	O=C(Cn1cnc2c(oc3ccccc32)c1=O)NCCc1ccccc1	2%	/	/	11%	5%	/	5µM*	/
14	CCn1c(C)nnc1SCC(=O)Nc1nccs1	2%	/	51%[activator]	1%[46.1 µM]	9%	/	3%	1%
15	CC1CN(C(=O)CS(=O)(=O)Cc2ccc(Cl)cc2)CC(C)O1 (stereo unspecified)	7%	/	-9%	8%[46.1 µM]	-11%[46.1 µM]	/	5%	/
16	COc1ccccc1-n1cc(C(=O)NCC(=O)N2CCN(c3ccccc3)CC2)c2ccccc2c1=O	15%	?	43%[activator]	-2%&-2%	?	-2.0%	1%	3%
17	CC1CC(C)(C)CC2(C1)NC(=S)N(c1ccccc1)N2 (stereo unspecified)	114%	0%	0%	-7%	-10%	2.0%	-2%	-6%
18	Cc1cccc(Nc2ncc3c(n2)CC(c2ccco2)CC3=O)c1 (stereo unspecified)	-17%	-21%	-13%	-6%	?	-7.7%	-6%	-6%
19	COc1ccc(NC(=O)COC(=O)CCc2ccc(S(=O)(=O)N3CCOCC3)cc2)cc1Cl	0%	/	-10%	10%	-8%	/	/	-4%
20	CCC(C)NC(=O)CS(=O)(=O)Cc1nc(-c2cccc(OC)c2)oc1C (stereo unspecified)	1%	6%	-22%	0%	/	-2.3%	2%	0%
21	COc1ccc(CNC(=S)N/N=C(/C)c2ccccc2)cc1	33%	/	21%	?	14µM*	/	-7%	-1%
22	Clc1ccc(Nc2ncnc3c2cnn3-c2ccccc2)cc1	0%	-7%	3%	/	/	-0.6%	-18%	-13%
23	Cn1c(=O)n(Cc2ccccc2)c(=O)c2c1nc1n2CCCN1C1CCCCC1	31%	/	?	?	1%	/	-38%	/
24	O=C(O)C1Cc2ccccc2CN1C(=O)COc1ccc(Br)cc1 (stereo unspecified)	1%	/	-1%	1%[46.1 µM]	5%	/	/	3%
25	CCN(CC)S(=O)(=O)c1cc([N+](=O)[O-])ccc1N1CCC(C(N)=O)CC1	-10%	/	9%	-1%[46.1 µM]	7%	/	/	0%

no.	Structure	RE007 growth inh	Cruzain inh noDet	2A StopGo	MARV entry inh	LASV entry inh	Cruzain inh Det	NS1 function inh	SARS PLpro yeast
26	Cc1cc([N+](=O)[O-])nn1CC(=O)NCc1ccc(Cl)cc1	-4%	/	-7%	/	/	/	3%	-5%
27	CC1=C(C(=O)OCc2ccccc2)C(c2ccsc2)NC(=O)N1C (stereo unspecified)	19%	/	-29%	/	/	/	-7%	0%
28	CCOC(=O)C1=C(C)N=c2s/c(=C\c3ccc(OCC(=O)O)cc3)c(=O)n2C1c1ccc(Cl)cc1 (stereo unspecified)	-28%	/	?	?	?	/	7%	2%
29	CCCC1(CCC)NC(=O)N(CC(=O)Nc2ccc3c(c2)OCCO3)C1=O	4%	/	-5%	0%[46.1 µM]	-10%[46.1 µM]	/	/	2%
30	NC(CO)(CO)COCc1ccccc1	-10%	/	22%	?	3%[46.1 µM]	/	/	2%
31	Cc1ccc(-n2ncc3c(N4CCN(Cc5ccccc5)CC4)ncnc32)cc1C	/	-9%	14µM*	/	?	0.3%	/	/
32	CCCCN(CC)CCCNC(=O)c1sc2nc(C)cc(C)c2c1-n1cccc1	/	6%	-14%	0%[46.1 µM]	2%[46.1 µM]	-2.8%	/	/
33	O=C(CSc1ccc(-c2cccnc2)nn1)N1CCCCC1	-7%	/	-4%	/	/	/	2%	24%
34	C=CCOc1ccccc1CN1CCC(C(=O)Nc2cccc(-c3ccn[nH]3)c2)CC1	7%	/	-20%	/	/	/	-6%	-2%
35	CC1CC(C)CN(C(=O)COC(=O)c2cc3ccccc3oc2=O)C1 (stereo unspecified)	22%	/	37%[activator]	?	-13%	/	/	-3%
36	COc1ccc(NC(=O)Cn2c(=O)n(Cc3nc(-c4ccccc4)no3)c(=O)c3cc4c(cc32)OCO4)cc1Cl	/	?	?	/	0%[46.1 µM]	-6.0%	/	/
37	CCC(C)NC(=O)c1ccc(NS(=O)(=O)c2ccc3[nH]c(=O)[nH]c3c2)cc1 (stereo unspecified)	-4%	/	-17%	-9%	-11%	/	-2%	-2%
38	CCOC(=O)C1CCN(C(=S)Nc2cc(C)ccc2C)CC1	-1%	3%	-13%	-18%	9%	-0.9%	11%	-1%
39	C=CCNC(=O)c1cc2c(=O)n3ccccc3nc2s1	5%	/	50%[activator]	/	/	/	-1%	0%
40	Cn1c(SCC(=O)NCc2cccs2)nnc1-c1ccc(S(=O)(=O)N2CCCC2)cc1	10%	-1%	-11%	0%&3%	-28%	2.7%	0%	1%
41	CCN(CC)CCNC(=O)CCCNC(=O)Cn1cnc2sc(C)c(C)c2c1=O	9%	-3%	3%	-11%	1%	-4.5%	-6%	1%
42	CCC(C)C(NC(=O)OCc1ccccc1)C(=O)NCC(c1ccccc1)N(C)C (stereo unspecified)	-12%	/	-9%	?	7%	/	-11%	10%
43	Cc1ccc(C2=CSC3=NCCN23)cc1	0%	/	59%[activator]	?	18%	/	/	/
44	CCOc1ccc(C(=O)Nc2ccc(S(=O)(=O)N3CCCCC3c3cccnc3)cc2)cc1 (stereo unspecified)	/	2%	32µM*	/	?	-4.0%	/	/
45	COc1ccc(-c2nc3ccc(NS(C)(=O)=O)cc3o2)cc1	/	?	46%[activator]	?	?	-6.0%	/	/
46	O=C(COC(=O)c1cccnc1)Nc1cccc(Cl)c1	-5%	-20%	9%	?	3%	-0.2%	-4%	-22%
47	O=C(NC(=S)NCc1ccccc1)c1ccccc1	-27%	/	35%[activator]	-14%[46.1 µM]	?	/	6%	-1%
48	COCCn1c(-c2ccc(-c3ccc([N+](=O)[O-])cc3Br)o2)nc2c1c(=O)[nH]c(=O)n2CC(C)C	1%	/	?	?	?	/	/	1%
49	COC(=O)c1n[nH]n(-c2cc(Cl)cc(Cl)c2)c1=O	-11%	/	11%	-1%	?	/	3%	1%
50	COC(=O)c1ccc(-c2nc3ccccc3[nH]2)cc1	?	5%	-79%	1.8µM*	7.3µM*	-24%	-5%	-56%

# One compound at a time, from the list above.
# Listed for `COC(=O)c1ccc(-c2nc3ccccc3[nH]2)cc1` = RE007 growth inh = ?; Cruzain inh noDet = 5%; 2A StopGo = -79%; MARV entry inh = 1.8µM*; LASV entry inh = 7.3µM*; Cruzain inh Det = -24%; NS1 function inh = -5%; SARS PLpro yeast = -56%
# Listed for `CCC(C)C(NC(=O)OCc1ccccc1)C(=O)NCC(c1ccccc1)N(C)C` (stereo unspecified) = RE007 growth inh = -12%; Cruzain inh noDet = /; 2A StopGo = -9%; MARV entry inh = ?; LASV entry inh = 7%; Cruzain inh Det = /; NS1 function inh = -11%; SARS PLpro yeast = 10%

# The results go on:
no.	Structure	RE007 growth inh	Cruzain inh noDet	2A StopGo	MARV entry inh	LASV entry inh	Cruzain inh Det	NS1 function inh	SARS PLpro yeast
51	O=[N+]([O-])c1cccc(CSc2ncnc3ccccc23)c1	?	/	-13%	2%	6%	/	/	-10%
52	Nc1ccccc1S(=O)(=O)NCCCCc1ccccc1	-16%	/	25%	/	/	/	-31%	-1%
53	CCOc1ccccc1N(CC(=O)Nc1ccccc1C(=O)O)S(C)(=O)=O	10%	1%	-11%	?	0%	5.2%	9%	-2%
54	CCOc1c(C)cnc2c1c(=O)n(Cc1ccccc1F)c(=O)n2C	15%	/	17%	/	/	/	3%	-26%
55	N#C/C(=C\Nc1ccccc1SC(F)(F)F)c1nc(-c2ccccc2)cs1	2%	?	-7%	/	/	-5.0%	2%	10%
56	O=C(CSc1nnc(CCCO)n1-c1ccccc1)NCCc1ccccc1	-16%	8%	13%	6%	16%	-2.0%	10%	3%
57	CC(NS(=O)(=O)c1ccccc1)C(c1cccs1)N1CCOCC1 (stereo unspecified)	-4%	4%	-14%	2%	-17%	0.2%	16%	23%
58	COc1ccccc1-n1c(O)c(/C=N/N2CCCCC2)c(=O)n(-c2ccccc2OC)c1=S	0%	/	19%	22%[46.1 µM]	-5%	/	-13%	0%
